Screening results as filed in PubChem.
VDR inh = vitamin D3 receptor (human) inhibition | P11473 | VDR-SRC2-3 peptide fluorescence polarization, 2 h | Potency, µM, for the others: max response, negative = inhibition, actives largely listed as inhibitors | 400,000 tested, 0.93% active | AID 504847; active means well fitted inhibition curve with a large enough effect; inconclusive means small, poorly fitted or top-dose-only effect, or another doubt; inactive means no such curve, though single readings can be large or run the other way; further: series mostly up to about 120 µM
Target sequence (P11473 whole entry, looked up): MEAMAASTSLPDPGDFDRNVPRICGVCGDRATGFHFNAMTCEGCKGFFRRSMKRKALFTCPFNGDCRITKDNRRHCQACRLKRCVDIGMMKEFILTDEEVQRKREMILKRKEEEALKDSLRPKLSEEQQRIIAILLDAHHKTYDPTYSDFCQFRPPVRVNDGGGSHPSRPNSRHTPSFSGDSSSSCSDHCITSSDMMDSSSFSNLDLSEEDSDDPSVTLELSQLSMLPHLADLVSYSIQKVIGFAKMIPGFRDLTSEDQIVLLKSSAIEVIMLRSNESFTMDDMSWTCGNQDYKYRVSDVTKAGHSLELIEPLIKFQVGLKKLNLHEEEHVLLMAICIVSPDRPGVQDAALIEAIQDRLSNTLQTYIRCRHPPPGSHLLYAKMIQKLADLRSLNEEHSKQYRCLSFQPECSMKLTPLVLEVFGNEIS
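VDR–SRC2-3 interaction, FP format. Cmpds 23 nl via pintool, brief spin, 2 h ambient incubation.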
Active calls of the source: *; ? = inconclusive; & = joins results of further samples. On the % scale 0 is the no-effect control and ±100 the full control effect; potency means the concentration at half of the fitted maximal effect.

VDR inh	Structure
?	Cc1sc(NC(=O)C2CCCO2)c(C(N)=O)c1C (configuration not stated)
?	COc1cc(/C=C2/C(=N)N3C(=NC2=O)SN=C3S(C)(=O)=O)ccc1OS(=O)(=O)c1ccc(C)cc1
-22%	Cc1ccc(S(=O)(=O)Nc2c(C(=O)O)[nH]c3ccccc23)c(C)c1
-16%	O=C(NCc1ccc2c(c1)OCO2)C1CCC(CNS(=O)(=O)c2ccccc2)CC1 (configuration not stated)
8%	CC(NC(=O)c1ccc(F)cc1)C(c1cccs1)N1CCN(C)CC1 (configuration not stated)
-7%&-1%	Cc1ccc(C)c(C(=O)COC(=O)CCCC(=O)Nc2cc(C(F)(F)F)ccc2Cl)c1
2%	CCCCN(C(=O)CSc1c(C)c(C)cc(C)c1C)c1c(N)n(CCC)c(=O)[nH]c1=O
-10%	COc1ccc(NC(=O)c2ccc(NC(=O)CCS(=O)(=O)c3cccs3)cc2)cc1OC
-5%	COc1ccc(/C=N/NC(=O)c2cccs2)c2ccccc12
-6%	COC(=O)c1c(NC(=O)c2c(OC)cccc2OC)sc2c1C(C(=O)OC)CC2 (configuration not stated)
-6%	CCOC(=O)CC(NC(=O)c1ccco1)c1ccc(OC)cc1 (configuration not stated)
-20%	COc1cc(/C=C/C(=O)OCC(=O)Nc2ccc(Cl)cn2)ccc1O
10%	CCN(CC(=O)Nc1cc(Cl)ccc1C)C(=O)c1nc2nc(C)cc(C)n2n1
0%	C[C@@H]1CN(C2CCN(Cc3nc(CC4CC4)no3)CC2)C[C@H](C)O1
-2%	CCN(C(=O)CSc1nnc(-c2cc3occc3n2C)n1-c1ccccc1C)c1cccc(C)c1
3%	O=C(NC1CCCCCC1)C1CCCN(S(=O)(=O)c2cnc[nH]2)C1 (configuration not stated)
2%	CC(C)CCNC(=O)C1CCCN1C(=O)NC1CCCCC1 (configuration not stated)
3%	N#Cc1nc(COc2ccc(Br)cc2)oc1NCCCn1ccnc1
7%	C[N+]1(C)CC[C@@H](OC(=O)[C@@](O)(c2ccccc2)C2CCCC2)C1
11%	Cn1c(N)c(C(=O)c2ccc(F)cc2F)c(=O)n(C)c1=O
2%	CCC1Oc2ccccc2N(CC(=O)NC2CCCC2)C1=O (configuration not stated)
2%	OC(Cn1cncn1)(c1ccccc1)c1ccccc1
1%	O=C(CSCc1cnn(-c2ccccc2)c1-n1cccc1)NCc1ccc(F)cc1
-17%	NS(=O)(=O)c1cccc(NC(=O)CSc2nc3ccc(Cl)cc3[nH]2)c1
13%	Cc1nc(NC(C)c2ccccc2)c2oc3ccccc3c2n1 (configuration not stated)

(next part)
VDR inh	Structure
-3%	O=C(CN1C(=O)S/C(=C\c2ccc(Cl)cc2)C1=O)NCCCn1ccnc1
-3%	O=C1C2C3CC(C(Br)C3Br)C2C(=O)N1c1ccccn1 (configuration not stated)
-8%	CCCc1cc(C(=O)Nc2cc(C)nn2-c2ccccc2)no1
-2%	COc1ccc(CCN=C(N)NS(=O)(=O)c2cccs2)cc1
-6%	CCCc1nc2ccc(NC(C)=O)cc2c(=O)n1Cc1cccc(Cl)c1
2%	CCN1CCC(N(Cc2cccc(OC)c2)C(=O)Nc2cccc(C(F)(F)F)c2)CC1
8%	Cc1ccccc1C(=O)N1CCC(C(=O)O)CC1
13%	S=C(NCc1ccco1)Nc1cc(-c2ccccc2)[nH]n1
?	CCOC(=O)N1CC=C2C(C#N)=C(N)C(C#N)(C#N)[C@H](c3ccccc3OCC)[C@H]2C1
1%	CSc1ccc(C2c3[nH]c4ccccc4c3CCN2C(=O)CCc2ccccc2)cc1 (configuration not stated)
79µM*	CC(C)[C@H](NS(=O)(=O)c1ccc2c(c1)OCCO2)C(=O)OCC(=O)Nc1cc(Cl)ccc1Cl
-3%	Cc1cc(C)c(NC(=O)COC(=O)C2CCCCC2)c(C)c1
2%	C/C(=N\NC(=O)c1c(Cl)cnn1C)c1cccnc1
-8%	CN1CCN(C2=C(Cl)C(=O)N(c3cccc(Cl)c3)C2=O)CC1
-2%	CCSC1=C(C#N)C(c2ccccc2OC)CC(=O)N1 (configuration not stated)
10%	CN(C)/C=C1/N=C(c2ccccc2)OC1=O
4%	Cc1cccc(S(=O)(=O)c2cn(Cc3ccccc3)c3cc(N4CCCCC4)c(F)cc3c2=O)c1
-14%	COc1ccc(CCN2CC(C(=O)N(C)CCc3cn[nH]c3)CCC2=O)cc1 (configuration not stated)
-7%	CCOC(=O)c1ccc(CNCc2ccc(Br)cc2)cc1
2%	O=C(O)c1cc(N2C(=O)CCC2=O)ccc1NCc1cccnc1
9%	CC1(C)Cc2noc(N)c2C(C)(C)N1OC(=O)c1scc2c1OCCO2
23%	CC1CCN(C(=O)CN2c3ccc(Br)cc3-c3ccccc3S2(=O)=O)CC1
-2%	O=C(Nc1cccc(-c2cccc(F)c2)c1)C1CCN(C2CCOCC2)CC1
16%	CCCC(=O)Nc1nc(-c2ccc3c(c2)CCN3S(C)(=O)=O)cs1
12%	O=C(OCc1ccc([N+](=O)[O-])cc1)c1ccc2ccccc2n1

Pulled one by one from the entries so far:
VDR inh	Structure
4%	Cc1cccc(S(=O)(=O)c2cn(Cc3ccccc3)c3cc(N4CCCCC4)c(F)cc3c2=O)c1
-2%	O=C(Nc1cccc(-c2cccc(F)c2)c1)C1CCN(C2CCOCC2)CC1

Molecules above containing a CF3 group, in the order listed:
VDR inh	Structure
-7%&-1%	Cc1ccc(C)c(C(=O)COC(=O)CCCC(=O)Nc2cc(C(F)(F)F)ccc2Cl)c1
2%	CCN1CCC(N(Cc2cccc(OC)c2)C(=O)Nc2cccc(C(F)(F)F)c2)CC1

Remaining list, next part
VDR inh	Structure
-3%	O=C(NCc1cccnc1)c1cccc(C(F)(F)F)c1
23%	COc1ccc(-c2nc3ccccc3s2)cc1NC(=O)c1ccc(C#N)cc1F
-3%	COC(CNC(=O)CCCn1nnnc1CN1CCOCC1)c1cccs1 (configuration not stated)
5%	COCC(=O)Nc1cccc(-c2ccc3nncn3n2)c1
-9%	Cc1ccc(S(=O)(=O)CC(=O)NC2CC2)cc1
-5%	CCN(c1ccccc1)S(=O)(=O)c1ccc(C(=O)Nc2ncccc2O)cc1
-12%	N#CC(C#SN)=C1CCCCC1
5%	O=C(Cn1[nH]c(=O)c2ccccc2c1=O)Nc1cccc(-c2nnc3n2CCCCC3)c1
-4%	COC(=O)c1sccc1NC(=O)CN(C)NS(=O)(=O)c1ccc(Cl)cc1
20%	N#CCn1c(C2CCCCC2)nc2ccccc2c1=O
-3%	O=C(CCc1ccccc1)NC1CCS(=O)(=O)C1 (configuration not stated)
-5%	Cc1ccc(S(=O)(=O)NCCn2nc(C)cc2C)cc1
-18%	COc1ccc2c(c1)c(=O)c(C(=O)c1ccc(C)c(C)c1)cn2CC(=O)Nc1ccc2c(c1)OCCO2
6%	Cc1ccc2oc(-c3ccc(NC(=O)CC(C)C)cc3)nc2c1
8%	COc1cccc(C(=O)NCC(=O)N/N=C(\C)Cc2ccccc2)c1
-9%	Oc1ccc(C2C=C(c3ccc(F)cc3)Nc3ncnn32)cc1 (configuration not stated)
-8%	CNC(=O)CCC(=O)Nc1ccc(C(=O)OC)cc1
16%	CCCC(=Nc1ccccc1OC)C1=C(O)CC(c2ccccc2)CC1=O (configuration not stated)
1%	CCNC(=S)NNC(=O)c1csc2c1CCCC2
-8%	CN(C)c1cccc(C(=O)NNC(=S)NC2CCCC2)c1
-11%	COc1cc(-c2cc(C(=O)Nc3cccc(S(=O)(=O)N(C)C)c3)c3ccccc3n2)cc(OC)c1OC
-21%	COC(=O)C(NC(C)=O)(Nc1nc2c(C)cc(C)cc2s1)C(F)(F)F (configuration not stated)
-6%	COc1cc(/C=C(/C(=O)O)c2ccc(-c3ccccc3)cc2)cc(OC)c1OC
-7%	Cc1cnc(NC(=O)CN2CCN(c3ccccn3)CC2)s1
10%	Cc1cccc(NC(=O)c2oc3ccccc3c2NC(=O)Cc2coc3cc(C)cc(C)c23)c1

(further entries)
VDR inh	Structure
5%	O=C(Nn1cnnc1)c1ccccc1-c1ccccc1
1%	Cc1cc(-c2nnc(SCC(=O)c3ccc(F)cc3)o2)no1
-8%	O=C(CSc1ncc(C(F)(F)F)cc1Cl)NCC1CCCO1 (configuration not stated)
-6%	COC(=O)C12CCC3(SCCS3)C(C(=O)OC)(CCC13SCCS3)C2
?	O=C(O)C1Nc2c(C(F)(F)F)ccc(Cl)c2C2C=CCC12 (configuration not stated)
14%	CCCCOC(=O)Nc1ccc(S(=O)(=O)Nc2nc(C)cc(C)n2)cc1
11%	O=C(COC(=O)Cc1ccc(Cl)cc1)Nc1ccccc1F
5%	COc1ccc(NC(=O)Cc2ccc(C)c(C)c2)cc1S(=O)(=O)N1CCCCC1
?	CC(=O)Nc1cccc(Oc2nc(C)cc(C)c2C#N)c1
-24%	O=c1ccc(=O)n(-c2ccccc2)[nH]1
-1%	O=C(CCn1cccc1)NCCc1ccc(Cl)cc1
-15%	Cc1nc(SCC(=O)Nc2c(C)n(C)n(-c3ccccc3)c2=O)c2cnn(-c3ccccc3)c2n1
1%	O=C(O)c1ccc(N2CCCCC2)cc1O
7%	Cc1c(CCNC(=O)c2ccco2)sc2nc(-c3ccc(F)cc3)nn12
?	Cc1cccc(OCCCC(=O)NC(C)C)c1
-23%	O=C(CN1CCN(CCC(=O)Nc2ccccc2F)CC1)Nc1ccc(Cl)cc1
0%	CNC(=O)c1ccccc1Sc1ccccc1CO
-10%	Cc1ccc(S(=O)(=O)N2CCCC2C(=O)NCc2ccccc2Cl)cc1 (configuration not stated)
-13%	O=C(NC1CCCC1)C(c1ccccn1)N(C(=O)c1csnn1)C1CC1 (configuration not stated)
15%	O=C(/C=C/c1cccs1)NNC(=O)c1cccc([N+](=O)[O-])c1
-14%	CNC(=O)c1cc2cc(Br)ccc2s1
-14%	COc1ccccc1N(C)S(=O)(=O)c1ccc(C(=O)NCc2ccccc2CN2CCCC2)cc1
13%	CC/C(=N\NC(=O)CNC(=O)/C=C/c1ccc(OC)cc1)c1ccccc1
-1%	COc1cc(NC(=O)C(CCSC)NS(=O)(=O)c2ccc3c(c2)oc(=O)n3C)cc(OC)c1 (configuration not stated)
-12%	NC(=O)C[C@H]1NC(=O)[C@H](CCC(=O)O)NC(=O)c2cc([N+](=O)[O-])cc(I)c2NCCC[C@@H](C(N)=O)NC1=O

VDR inh: entries above that show a hit.
VDR inh	Structure
79µM*	CC(C)[C@H](NS(=O)(=O)c1ccc2c(c1)OCCO2)C(=O)OCC(=O)Nc1cc(Cl)ccc1Cl

Going on with the list:
VDR inh	Structure
-11%	Fc1cccc(CCN2CCNC[C@@H]2Cc2ccccc2)c1
-4%	COc1ccc(NC(=O)COC(=O)COc2cccc(Br)c2)cc1OC
?	COc1ccc2oc(-c3ccc(C)c(NC(=O)CSc4ccc(Cl)cc4)c3)nc2c1
1%	CCc1ccc(OCC(=O)Nc2ccc3c(c2)c2ccccc2n3CC)cc1
-11%	COC(=O)[C@@]12CCCN1[C@H](c1ccc(-c3ccc(Cl)c(Cl)c3)cc1)[C@H]1C(=O)N(C)C(=O)[C@H]12
3%	CSCCC(NC(=O)COc1ccccc1)C(=O)N1CCN(c2ccccc2Cl)CC1 (configuration not stated)
-16%	Cc1cccc(C(=O)N2CCCC(Nc3ccc(C)c(C)c3)C2)n1 (configuration not stated)
-3%	CS(=O)(=O)c1ccc(C(=O)OCC(=O)c2ccc(Cl)s2)cc1
-5%	Cc1nc2c3ccccc3nc(NNC(=O)CCC(=O)N3CCN(c4cccc(C(F)(F)F)c4)CC3)n2n1
18%	CCN(CC)CCNC(CC(=O)Nc1ccc(Cl)cc1Cl)C(=O)O (configuration not stated)
-17%	COc1ccc(N2CCN(Cc3nc4c(c(=O)[nH]c(=O)n4C)n3Cc3ccccc3)CC2)cc1
-5%	CC(=O)C1=C(C)N2CCN=C2S1
-23%	O=Cc1ccc(OC(=O)/C=C/c2ccccc2)cc1
?	Cc1cc(-c2ccc(N=Nc3c(S(=O)(=O)O)cc4cc(S(=O)(=O)O)cc(N)c4c3O)c(C)c2)ccc1N=Nc1c(S(=O)(=O)O)cc2cc(S(=O)(=O)O)cc(N)c2c1O
-1%	CN(Cc1ccccc1)c1ncnc2c1nc1n2CCCC1
-8%	Cc1[nH]nc(SCC(=O)N2CCCCC2)c1[N+](=O)[O-]
-6%	CCOc1ccccc1N(CC(=O)Nc1ccc(C)cc1)S(C)(=O)=O
11%	CC(OC(=O)C1=COCCO1)C(=O)Nc1ccc(Oc2ccccc2)cc1 (configuration not stated)
11%	CCOC(=O)c1[nH]c(C)c(C(=O)N(C)Cc2ccccc2)c1C
?	Cn1c(=O)[nH]c(=O)c2c1nc(N1CCCCC1)n2C/C=N/NC(=O)c1cc(Br)ccc1O
14%	O=C(CCc1nc2ccccc2c(=O)[nH]1)NCc1ccco1
0%	COc1ccc(NC(=O)CCC(=O)c2cccs2)cc1S(=O)(=O)Nc1ccc(Cl)cc1
3%	CCCN1CCC(=O)N([C@H](CSc2ccc(Br)cc2)Cc2ccccc2)CC1
-3%	COc1ccc(N2CCN(C(=O)Cc3nn(C)c(=O)c4ccccc34)CC2)cc1
?	Cc1cc(C)cc(NC(=O)C2CCN(C(=O)[C@@H]3Cc4ccccc4CN3)CC2)c1
9%	O=C(Nc1nnc(COc2ccccc2)s1)c1ccco1
-7%	O=C(Nc1ccccc1C(=O)Nc1ccccn1)c1ccccc1F

By substructure, those above with a cyano group
VDR inh	Structure
3%	N#Cc1nc(COc2ccc(Br)cc2)oc1NCCCn1ccnc1
?	CCOC(=O)N1CC=C2C(C#N)=C(N)C(C#N)(C#N)[C@H](c3ccccc3OCC)[C@H]2C1
-2%	CCSC1=C(C#N)C(c2ccccc2OC)CC(=O)N1 (configuration not stated)
23%	COc1ccc(-c2nc3ccccc3s2)cc1NC(=O)c1ccc(C#N)cc1F
-12%	N#CC(C#SN)=C1CCCCC1
20%	N#CCn1c(C2CCCCC2)nc2ccccc2c1=O
?	CC(=O)Nc1cccc(Oc2nc(C)cc(C)c2C#N)c1

This is a subset; the hit share may differ from the screen's.
